Assay outcomes deposited in PubChem by several laboratories.
Calb FLC = C. albicans growth inhibition with fluconazole, primary screen, CaCi-2 strain, Alamar Blue fluorescence; C. albicans CaCi-2 (fluconazole-resistant clinical isolate) + fluconazole, 48 h; growth inhibition, % (no concentration beside the values); AID 1979, 2009; 300,000 compounds, 0.57% hits;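 active = most replicates above 75%; inconclusive = exactly half above 75%; inactive = most below 75%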;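 note: all wells also contain fluconazole at 8 µg/ml as a sub-toxic cotreatment; 0% = median of DMSO wells and 100% = median of geldanamycin control wells; wells of about 8 µL received 7.5 nL stock; the first replicate is given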
Beta cell apopt = inhibitors of cytokine-induced beta cell apoptosis, primary screen, luminescence | INS-1E cytokine-induced death, ATP luminescence, 48 h; percent of positive-control rescue, neutral wells zero | protection from apoptosis, % (concentration not given with the values) | 300,000 compounds, 0.8% hits;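 active = all replicates at 75% or more, or half of them and the mean; inconclusive = half reach 75% but not the mean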;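 note: 0% = cytokine-treated negative control wells and 100% = positive control rescue; higher means more ATP so stronger rescue from cytokine killing; wells of about 40 µL received 100 nL stock; the first replicate is given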
T cruzi inh = inhibitors of intracellular T. cruzi growth, primary screen, luminescence, NIH3T3 host cells | inhibition, % (no concentration beside the values) | T. cruzi beta-gal in NIH3T3, 90 h | 300,000 compounds, 1.4% hits;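 active = mean inhibition across valid replicates above about 55%, limit read from the data; inconclusive = mean below that limit but half or more replicates reach it; inactive = mean below it, under half of replicates reach it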;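 note: signal also drops with host cell toxicity which is not excluded here; 0% = plate median of DMSO wells and 100% = zero luminescence signal; higher percent means less beta-gal luminescence so fewer parasites; stock transfer was 50 nL into about 50 µL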
Vif A3G = inhibitors of Vif binding to APOBEC3G peptide, primary screen, biochemical, TR-FRET, GST-Vif 1-94, biotin-A3G peptide, dose response retest (AID 1117319). one-dose inhibition, %; IC50 in µM for titrated hits. 260,000 compounds, 0.57% hits. Virion infectivity factor (Human immunodeficiency virus type 1 group M subtype B (isolate …. TR-FRET GST-Vif / biotin-A3G peptide binding; higher % means a stronger effect; test concentration not given here; strong numbers were not always called active;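 active = above the screen mean plus three standard deviations and confirmed in dose response; inconclusive = results disagree or hit not tested in dose response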;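 note: Vif residues 1-94 fused to GST binding biotinylated APOBEC3G peptide 110-148; 0% = full assay without inhibitor and 100% = GST in place of GST-Vif; retest series ran down from 100 µM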
RanGTP-Imp inh = inhibitors of RanGTP-importin-beta interaction, primary screen, biochemical, FRET, CFP-Ran, YFP-importin-beta, homogeneous | Ran GTPase (GTP-bound) - importin-beta complex | cell-free CFP-Ran/YFP-importin-beta FRET ratio | 300,000 compounds, 1.1% hits | inhibition, % (concentration not given with the values);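 active = most replicates above 15%; inconclusive = exactly half above 15%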;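 note: 0% = DMSO wells and 100% = Ran loaded with GDP instead of GTP; wells of about 40 µL received 100 nL stock; the first replicate is given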
Ecoli rRNA inh = reduced GFP signal of wild-type E. coli, primary screen, bacterial rRNA inhibitor project, GFP/RFP fluorescence, OD600, single point | 350,000 compounds, 1.6% hits | E. coli WT GFP vs humanized-ribosome RFP mutants, 24 h; hits give low values; DMSO median 0, no signal -100 | GFP signal change (wild-type ribosome), % (concentration not given with the values);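 active = significant combined selectivity score with lowered wild-type GFP, culture density cut under 30%, mutant RFP and density less affected; inactive = any of these conditions unmet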; note: one replicate is shown; some compounds called inactive have numbers as strong as hits
MLL AF4-AF9 inh = inhibitors of AF4 peptide binding to AF9, primary screen, biochemical, AlphaScreen, biotin-AF4 peptide, FLAG-AF9, single point. Protein AF-9 (Homo sapiens), P42568. inhibition, % at 10 µM. 350,000 compounds, 0.47% hits. AID 651704, 2012;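 active = every replicate reaching a set inhibition limit, whatever the replicate mean, cut at about 25% in these data; inconclusive = mean inhibition reaches that limit but some replicates miss it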;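 note: 0% = plate neutral control median and 100% = total signal loss; the record names both 10 and 1 µM as test concentration; the first replicate is given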
Target sequence (P42568 whole entry, looked up): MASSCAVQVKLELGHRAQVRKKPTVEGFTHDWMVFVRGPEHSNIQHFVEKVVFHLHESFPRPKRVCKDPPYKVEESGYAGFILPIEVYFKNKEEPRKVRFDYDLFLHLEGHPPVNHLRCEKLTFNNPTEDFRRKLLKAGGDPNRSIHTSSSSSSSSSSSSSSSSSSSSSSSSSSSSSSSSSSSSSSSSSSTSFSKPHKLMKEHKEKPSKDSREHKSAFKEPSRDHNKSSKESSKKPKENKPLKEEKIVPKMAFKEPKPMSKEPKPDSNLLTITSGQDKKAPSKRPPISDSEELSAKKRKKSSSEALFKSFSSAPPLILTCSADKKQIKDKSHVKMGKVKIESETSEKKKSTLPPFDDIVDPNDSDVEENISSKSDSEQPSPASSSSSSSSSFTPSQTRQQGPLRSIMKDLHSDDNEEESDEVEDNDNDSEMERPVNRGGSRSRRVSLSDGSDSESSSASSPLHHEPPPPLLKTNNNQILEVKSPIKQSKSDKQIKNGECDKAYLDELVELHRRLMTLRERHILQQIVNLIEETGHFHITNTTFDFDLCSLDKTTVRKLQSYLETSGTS
Bfl-1 A1 inh = caspase 3/7 activation in MEF A1-2A-BIM cells, primary screen, A1 inhibitor project, cell-based, luminescence, HTS; Caspase-Glo 3/7 luminescence, 3 h; percent of clofoctol response, vehicle zero; caspase activation, % (concentration not given with the values); 330,000 compounds, 0.066% hits; AID 2462, 2010;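 active = over half of replicate activation scores above 10%, or exactly half above 10 with the replicate mean above 10; inconclusive = replicate mean below 10 yet half the replicates above 10; inactive = over half of replicates below 10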;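 note: wells of about 30 µL received 50 nL stock; many hits fall short of the cut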
Ecoli rRNA inh OD600 = also measured in Ecoli rRNA inh; calls as there; OD600 change, %; measured here: OD600 growth;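 optical density of the mix in the first replicate; 0 = DMSO median and -100 = no signal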
Ecoli rRNA inh RFP = second read-out of Ecoli rRNA inh, no call of its own (marks repeat the call); RFP signal change, %; measured here: RFP humanized mutant strains;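 first replicate; 0 = DMSO median and -100 = no signal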
Numbers without * were called inactive; ? = inconclusive; · = not tested or not shown; & = joins results of further samples. This is a subset; rates above refer to the full screens.

SMILES | Calb FLC | Beta cell apopt | T cruzi inh | Vif A3G | RanGTP-Imp inh | Ecoli rRNA inh | Ecoli rRNA inh OD600 | Ecoli rRNA inh RFP | MLL AF4-AF9 inh | Bfl-1 A1 inh
COc1ccc(-n2ncc(C(C)NS(=O)(=O)c3cc(F)ccc3C)c2C)cc1 (stereo unspecified) | -1.1 | 5.1 | 7.8 | · | 0.0 | 4.1 | -17.9 | 4.2 | 1.3 | -0.9
COc1cccc(OC)c1C(=O)Nc1ccc(Br)c(C(=O)c2ccccc2)c1 | 2.9 | -3.4 | 17.7 | · | 1.0 | -8.1 | -25.3 | -1.2 | 3.8 | 0.7
COc1ccc(-n2cnc3sccc3c2=O)cc1 | -0.6 | -6.7 | -16.4 | · | -4.3 | 15.1 | 7.5 | -0.3 | -1.3 | ?
Cn1c(SCC(=O)Nc2cccc(S(=O)(=O)N3CCOCC3)c2)nnc1-c1ccncc1 | -3.7 | -1.1 | -3.2 | ? | -1.8 | 16.5 | 11.1 | 2.6 | 1.5 | 0.2
Cc1cc(NC2CCCCC2)nc(N2CCOCC2)n1 | 12.1 | 3.8 | 21.2 | -4.7% | 2.8 | -2.1 | -5.6 | 2.1 | · | -0.2
COc1cc(OC)c(NS(=O)(=O)c2cc(C(=O)OC(C)C(=O)NC3CC3)c(Cl)cc2Cl)cc1Cl (stereo unspecified) | 10.5 | · | 6.4 | 3.8% | 1.0 | · | · | · | · | -0.7
Cc1ccc(C)c(Cn2nnc3c(=O)[nH]c(C4CCCN(C(=O)c5cccs5)C4)nc32)c1 (stereo unspecified) | 6.4 | 2.3 | 5.1 | 3.3% | -2.5 | -8.7 | -16.3 | 0.4 | 0.8 | -0.1
O=C(Nc1ccc2[nH]ccc2c1)c1cccs1 | 1.9 | -20.8 | -9.7 | -2.6% | 3.6 | -9.9 | -4.6 | -3.9 | 0.6 | 0.4
Cc1nc(C(=O)NNC(=O)c2ccc(C(F)(F)F)cc2)cs1 | -4.1 | -2.9 | -18.7 | 7.0% | -0.3 | 0.0 | -1.4 | -3.8 | 0.1 | 0.1
COC(=O)c1cccc(NC(=O)c2ccc3c(c2)C(=O)N(CC2CCCO2)C3=O)c1 (stereo unspecified) | -3.9 | 0.4 | -9.4 | 74.3% | -1.7 | · | · | · | · | 0.5
Cc1ccc([N+](=O)[O-])cc1S(=O)(=O)Nc1ccc(C(=O)N(C)C)cc1 | -5.6 | 2.3 | 12.2 | · | -2.3 | 18.2 | 15.9 | 2.2 | -3.6 | 0.6
CCC(C(=O)Nc1ccccc1-c1ccccc1)c1ccccc1 (stereo unspecified) | 7.8 | 7.8 | 0.7 | 6.4% | 3.1 | -15.5 | -29.0 | -10.5 | · | 0.2
COc1cccc(NC(=O)C2C3C=CC(O3)C2C(=O)O)c1 (stereo unspecified) | 6.4 | -3.3 | -1.5 | -5.2% | -3.7 | 9.6 | 20.9 | 1.8 | 4.7 | 0.5
COc1ccc([C@H]2CC(=O)C=C(c3cc(Cl)ccc3OC)C2)cc1 | · | 0.8 | · | · | · | -11.0 | -19.2 | -19.4 | 4.1 | -0.3
Cc1cc(C)cc(NC(=O)CN2CCC(NC(=O)c3cccc(F)c3)CC2)c1 | 1.3 | 6.5 | -5.2 | 0.0% | -9.8 | -7.3 | -12.4 | -0.5 | -12.8 | -0.8
C=CCN1C(=O)c2ccccc2Sc2ccc(C(=O)NCCC)cc21 | 2.0 | -1.6 | -4.3 | -1.0% | 0.7 | -1.3 | -1.4 | -1.6 | -1.0 | 0.0
COCCn1c(-c2ccccc2)cnc1SCC(=O)Nc1cccc2ccccc12 | ? | 0.6 | -1.3 | · | 3.7 | · | · | · | · | 0.6
Cc1cc(CN2CCCCC2)oc1C(=O)O | -8.1 | -4.3 | -17.9 | 20.9% | 3.5 | 3.2 | 2.5 | -0.3 | -14.1 | 1.4
Cc1noc(C)c1COC(=O)c1ccc2ccccc2n1 | -0.7 | 2.9 | -12.4 | -5.8% | -4.0 | · | · | · | · | -0.3
Cc1cccc(CC(=O)Nc2c3c(nn2-c2cccc(Cl)c2)CS(=O)C3)c1 (stereo unspecified) | -2.2 | -2.4 | -7.3 | -2.1%&-4.3% | -0.8 | · | · | · | · | -0.9
Cc1cccc(NC(=O)c2csnn2)n1 | 4.4 | -3.7 | -2.0 | 4.3% | -3.2 | 2.2 | 4.3 | -0.6 | -0.9 | -0.7
Cc1ccc2nc(NC(=O)CSc3ncnc4c3oc3ccccc34)sc2c1 | 5.0 | · | -10.1 | -3.5% | -2.4 | 4.7 | 9.2 | 2.1 | 3.5 | ·
COc1c(OC(C)=O)ccc(/C=C/c2ccc3cccc(OC)c3n2)c1[N+](=O)[O-] | -24.9 | · | -6.6 | · | -2.3 | · | · | · | · | -2.1
COc1cc(C2C(C(=O)N3CCOCC3)=C(C)NC3=C2C(=O)CCC3)ccc1OC(C)=O (stereo unspecified) | -5.2 | 6.2 | 9.5 | 1.8% | -2.9 | 14.8 | 14.8 | 0.1 | 5.6 | -0.5
Cn1c(=NC(=O)CN2C(=O)C3CC=CCC3C2=O)sc2ccccc21 (stereo unspecified) | 0.4 | -4.4 | 31.7 | -4.2%&-16.5% | -3.4 | 5.5 | 2.0 | -0.1 | -6.2 | 0.2
CCc1cccc2sc(N3CCN(C(=O)c4ccc([N+](=O)[O-])o4)CC3)nc12 | 14.0 | 25.2 | 63.8* | -1.8% | ? | · | · | · | · | 0.2
O=C1OCCN1CC(=O)N1CCc2c([nH]c3ccccc23)C1c1ccccn1 (stereo unspecified) | 11.6 | -2.7 | -1.5 | · | 2.3 | 8.9 | 6.5 | -0.1 | -1.0 | 0.4
CCOc1ccc(C(C)=O)cc1CN1C(=O)C(=O)N(CC)C1=O | 10.3 | 0.9 | 0.8 | · | ? | 7.9 | 11.5 | 1.2 | 0.3 | 0.5
O=C(NC(=S)Nn1cnnc1)c1ccccc1Br | -1.7 | -0.4 | -4.4 | · | 3.3 | 15.3 | 6.6 | -2.1 | -1.0 | -1.2
COc1ccc(CN2CCN(C(=O)c3cccs3)CC2)cc1 | -4.7 | 1.8 | 6.0 | 29.4% | 4.3 | · | · | · | · | 0.0
Cc1cc(C)c(C(N)=O)c(SCC(=O)c2cc(C)c(C)cc2C)n1 | -3.2 | -5.2 | 4.9 | · | -4.0 | · | · | · | · | 0.5
O=C(CSc1nc(-c2ccccc2)cs1)NCCN1C(=O)CSC1=O | 3.5 | -0.3 | -4.0 | · | 2.3 | 9.5 | -4.0 | 0.4 | -2.6 | 1.1
COC(=O)C(C)Sc1nnc(Cc2cc(=O)[nH]c(=O)[nH]2)n1-c1cc(C)ccc1C (stereo unspecified) | 14.2 | -7.4 | -5.2 | 95.6µM* | -1.1 | 5.6 | 8.9 | 0.2 | 1.7 | 0.3
COc1ccc(C(=O)Nc2nc3ccccc3[nH]2)cc1OC | -9.6 | 4.4 | -11.0 | 24.1% | ? | -23.1 | -7.1 | -10.1 | 13.0 | -2.4
Cc1cc2nc(C)n(CCCNC(=O)Nc3ccccc3)c2cc1C | 0.7 | 1.1 | 4.0 | -0.4% | -1.1 | · | · | · | · | 0.9
O=C(OCCCOC(=O)c1cc[n+]([O-])cc1)c1cc[n+]([O-])cc1 | 0.1 | -12.5 | 0.1 | 5.3% | 1.3 | 16.1 | 14.9 | 2.6 | -0.7 | 0.6
N#Cc1ccc(S(=O)(=O)N2CCN(CC(=O)NCC3(N4CCOCC4)CCCCC3)CC2)cc1 | · | -9.1 | · | -10.3% | · | 11.3 | 9.9 | 1.0 | -3.2 | 0.1
CN(Cc1ccccc1F)C(=O)COc1ccc(C(=O)c2ccccc2)cc1 | 10.3 | 3.2 | 22.5 | · | 3.1 | -11.8 | -44.7 | -3.3 | -11.1 | 0.1
O=C(Nc1cccc(Cl)c1)OCc1cn(-c2ccccc2)nn1 | ? | · | 12.6 | 0.1% | 1.9 | -12.1 | -19.1 | -2.6 | -2.0 | -0.3
O=C(CN1CCN(C(=O)CNC(=O)c2ccc3c(c2)OCO3)CC1)Nc1ccc(F)cc1 | · | -1.4 | · | -11.0% | · | 9.4 | 7.7 | 0.2 | -0.5 | 0.4
O=C(Nc1ccc2c(c1)OCCO2)c1cccnc1Oc1ccc(Cl)cc1 | -25.9 | -0.6 | 13.1 | 3.9% | 4.7 | -27.2* | -4.8* | -0.7* | 2.6 | 0.9
COc1ccc(N2CC(C(=O)NCCc3ccc(Cl)cc3)CC2=O)c(OC)c1 (stereo unspecified) | -5.4 | -4.8 | -7.1 | -0.4% | 7.2 | 3.1 | 11.3 | -2.3 | -0.1 | 0.1
N/C(=N\OC(=O)Cc1ccc(-c2ccccc2)cc1)c1cccc([N+](=O)[O-])c1 | 1.2 | 4.6 | -0.6 | 2.7% | 0.4 | 6.9 | 8.0 | 0.0 | · | -0.9
Cc1c(N2C(=O)C(=O)/C(=C(/O)c3ccc(Br)cc3)C2c2cccnc2)c(=O)n(-c2ccccc2)n1C (stereo unspecified) | -21.7 | -5.7 | -18.8 | -12.2% | ? | 5.2 | 5.2 | -1.9 | -1.1 | -0.6
Cc1ccc(NC(=O)Cn2nnc(C(=O)NCc3ccc(Cl)cc3)c2N)cc1F | 34.9 | -4.1 | -30.4 | -0.7% | 1.6 | 4.8 | 9.0 | 0.4 | -0.2 | 0.0
CCc1nnc(NC(=O)CSc2nnc(COc3cccc(C)c3)o2)s1 | 55.8 | -6.4 | -4.1 | 29.7% | -0.1 | · | · | · | · | 0.1
CCOc1ccc(-c2nnn(CC(=O)NCc3ccco3)n2)cc1 | -0.4 | 3.7 | -16.5 | -5.1% | 0.4 | · | · | · | · | -0.5
CCCOC1CCCN(C(=O)c2ccc3oc(C(C)C)nc3c2)C1 (stereo unspecified) | -0.9 | -0.1 | -4.2 | · | -0.7 | 4.2 | 16.5 | 0.5 | 3.4 | 0.6
O=[N+]([O-])c1ncc(Br)cc1Nc1ccccc1 | -4.0 | 10.3 | -13.0 | · | 6.5 | -21.5 | -26.4 | 4.9 | 6.6 | 1.0
FC(F)(F)c1ccc(C2[C@H]3CN(Cc4cccnc4)[C@H](c4ccccc4)C34CC2(c2cccnc2)C4)cc1 (stereo partly specified) | 13.1 | 15.1 | 47.8 | · | 0.6 | -1.1&-28.9 | -9.1&-63.8 | -7.5&3.6 | 8.8 | 1.2
O=C(O)Cn1nc(-c2ccc(Cl)cc2)ccc1=O | 6.7 | -10.0 | -1.2 | · | -1.1 | 3.2 | 18.1 | 1.6 | -2.3 | 0.1
